Screens from PubChem BioAssay.
rRNA inh HTS – reduced GFP signal of wild-type E. coli, primary screen, bacterial rRNA inhibitor project, GFP/RFP fluorescence, OD600, single point. E. coli WT GFP vs humanized-ribosome RFP mutants, 24 h; stronger effect = lower value; DMSO median 0, no signal -100. GFP signal change (wild-type ribosome), % (no concentration beside the values). hit rate 1.6% among 350,000. AID 720706, 2013;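 active = significant combined selectivity score with lowered wild-type GFP, culture density cut under 30%, mutant RFP and density less affected; inactive = any of these conditions unmet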; also: one replicate is shown; some compounds called inactive have numbers as strong as hits
ALR inh – inhibitors of human ALR sulfhydryl oxidase, primary screen, biochemical, H2O2 detection, HRP-luminol luminescence, single point. FAD-linked sulfhydryl oxidase ALR (Homo sapiens), P55789. hit rate 3.8% among 290,000. purified ALR, DTT oxidation. inhibition, % (no concentration beside the values). AID 485317, 2010;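 active = mean and each replicate at 75% or more; inconclusive = only one of the two met; inactive = neither met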;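 also: stock transfer was 7.5 nL into about 7.5 µL; 0% = neutral wells and 100% = wells with inactivated enzyme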
Target sequence (P55789 whole entry, looked up): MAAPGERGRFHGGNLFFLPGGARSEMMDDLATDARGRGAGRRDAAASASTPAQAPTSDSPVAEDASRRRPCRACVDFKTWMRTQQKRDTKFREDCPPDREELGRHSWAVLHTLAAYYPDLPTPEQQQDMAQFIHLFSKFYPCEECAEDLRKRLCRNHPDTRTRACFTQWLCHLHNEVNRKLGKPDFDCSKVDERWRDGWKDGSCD
MLL AF4-AF9 inh – inhibitors of AF4 peptide binding to AF9, primary screen, biochemical, AlphaScreen, biotin-AF4 peptide, FLAG-AF9, single point | Protein AF-9 (Homo sapiens), P42568 | inhibition, % at 10 µM | hit rate 0.47% among 350,000;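 active = every replicate reaching a set inhibition limit, whatever the replicate mean, cut at about 25% in these data; inconclusive = mean inhibition reaches that limit but some replicates miss it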;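 also: 0% = plate neutral control median and 100% = total signal loss; the record names both 10 and 1 µM as test concentration; the first replicate is given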
Target sequence (P42568 whole entry, looked up): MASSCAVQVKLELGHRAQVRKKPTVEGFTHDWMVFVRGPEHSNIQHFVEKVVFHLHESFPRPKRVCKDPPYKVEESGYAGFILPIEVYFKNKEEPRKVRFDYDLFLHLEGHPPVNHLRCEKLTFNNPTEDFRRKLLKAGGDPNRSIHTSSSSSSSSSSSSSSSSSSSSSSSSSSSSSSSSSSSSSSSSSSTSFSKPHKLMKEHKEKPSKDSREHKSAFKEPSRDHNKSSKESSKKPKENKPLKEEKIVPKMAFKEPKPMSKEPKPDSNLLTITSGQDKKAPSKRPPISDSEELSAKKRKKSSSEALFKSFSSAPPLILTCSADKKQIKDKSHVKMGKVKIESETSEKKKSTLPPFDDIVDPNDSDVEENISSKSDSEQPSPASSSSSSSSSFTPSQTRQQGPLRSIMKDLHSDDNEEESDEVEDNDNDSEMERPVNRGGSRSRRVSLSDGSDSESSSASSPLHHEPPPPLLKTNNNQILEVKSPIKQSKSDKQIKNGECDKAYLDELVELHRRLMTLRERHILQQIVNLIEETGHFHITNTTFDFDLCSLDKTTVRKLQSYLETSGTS
Beta cell apopt – inhibitors of cytokine-induced beta cell apoptosis, primary screen, luminescence; protection from apoptosis, % (test concentration not listed); hit rate 0.8% among 300,000; INS-1E cytokine-induced death, ATP luminescence, 48 h; percent of positive-control rescue, neutral wells zero; AID 435005, 2010;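 active = all replicates at 75% or more, or half of them and the mean; inconclusive = half reach 75% but not the mean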;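 also: 0% = cytokine-treated negative control wells and 100% = positive control rescue; higher means more ATP so stronger rescue from cytokine killing; wells of about 40 µL received 100 nL stock; the first replicate is given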
RanGTP-Impb inh – inhibitors of RanGTP-importin-beta interaction, primary screen, biochemical, FRET, CFP-Ran, YFP-importin-beta, homogeneous; hit rate 1.1% among 300,000; inhibition, % (test concentration not listed); cell-free CFP-Ran/YFP-importin-beta FRET ratio;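 active = most replicates above 15%; inconclusive = exactly half above 15%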;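 also: 0% = DMSO wells and 100% = Ran loaded with GDP instead of GTP; wells of about 40 µL received 100 nL stock; the first replicate is given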
T cruzi repl – inhibitors of intracellular T. cruzi growth, primary screen, luminescence, NIH3T3 host cells. hit rate 1.4% among 300,000. T. cruzi beta-gal in NIH3T3, 90 h. inhibition, % (test concentration not listed);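 active = mean inhibition across valid replicates above about 55%, limit read from the data; inconclusive = mean below that limit but half or more replicates reach it; inactive = mean below it, under half of replicates reach it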;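 also: signal also drops with host cell toxicity which is not excluded here; 0% = plate median of DMSO wells and 100% = zero luminescence signal; higher percent means less beta-gal luminescence so fewer parasites; stock transfer was 50 nL into about 50 µL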
Calb FLC – C. albicans growth inhibition with fluconazole, primary screen, CaCi-2 strain, Alamar Blue fluorescence; growth inhibition, % (concentration not given with the values); hit rate 0.57% among 300,000; C. albicans CaCi-2 (fluconazole-resistant clinical isolate) + fluconazole, 48 h;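 active = most replicates above 75%; inconclusive = exactly half above 75%; inactive = most below 75%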;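 also: all wells also contain fluconazole at 8 µg/ml as a sub-toxic cotreatment; 0% = median of DMSO wells and 100% = median of geldanamycin control wells; wells of about 8 µL received 7.5 nL stock; the first replicate is given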
FGF22 binding – binders of human FGF22 protein, primary screen, FGF22 synaptogenesis inhibitor project, biophysical, thermal shift, single point. hit rate 1.5% among 340,000. Fibroblast growth factor 22 (Homo sapiens), Q9HCT0. AID 651658, 2012. recombinant FGF22 thermal shift, SYPRO orange fluorescence; percent of sucrose octasulfate shift, DMSO zero. calls only at 9.99 µM;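 active = melting point raised past a set limit in the mean and every replicate; inconclusive = no clear call; three in four hits are not shown here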
Target sequence (Q9HCT0 whole entry, looked up): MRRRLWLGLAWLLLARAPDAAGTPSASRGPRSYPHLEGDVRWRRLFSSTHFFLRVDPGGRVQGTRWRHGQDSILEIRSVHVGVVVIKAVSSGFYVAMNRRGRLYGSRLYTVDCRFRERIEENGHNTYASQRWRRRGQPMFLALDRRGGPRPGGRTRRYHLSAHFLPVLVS
rRNA inh HTS OD600 – second read-out of rRNA inh HTS, no call of its own (marks repeat the call); OD600 change, %; measured here: OD600 growth;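 optical density of the mix in the first replicate; 0 = DMSO median and -100 = no signal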
rRNA inh HTS RFP – recorded beside rRNA inh HTS, whose call it bears; RFP signal change, %; measured here: RFP humanized mutant strains;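 first replicate; 0 = DMSO median and -100 = no signal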
Active calls of the source: *; i = inactive; ? = inconclusive; · = no result given; + = active, no number; & = joins results of further samples.

SMILES | ALR inh | rRNA inh HTS | RanGTP-Impb inh | Calb FLC | rRNA inh HTS OD600 | T cruzi repl | Beta cell apopt | MLL AF4-AF9 inh | FGF22 binding | rRNA inh HTS RFP
CCOc1ccc2nnc(-c3ccc(Br)cc3)n2n1 | -2 | · | 2.3 | -24 | · | -9 | -1 | · | · | ·
COc1ccc(-n2nc(C(=O)NCC(=O)NC3CCCCC3)c3ccccc3c2=O)cc1 | 1 | -4 | 1.7 | 20 | 0 | -10 | -1 | 0.8 | i | -1.1
CC1=CS(=O)(=O)CC1Sc1nc(C)n[nH]1 (stereo not drawn) | 0 | 12 | 4.6 | 7 | 8 | -1 | 1 | 1.3 | i | 0.1
CCOC(=O)N1CCN(c2nc(C(F)(F)F)nc3c(C)cc(C)cc23)CC1 | -5 | · | -3.4 | -16 | · | 0 | -8 | · | · | ·
C[C@]12C[C@H](O)[C@H]3[C@@H](CCC4=CC(=O)CC[C@@]43C)[C@@H]1CC[C@@H]2C(=O)CO | · | -2 | 0.4 | · | -21 | 12 | -3 | -1.5&-6.0 | i | 4.1
O=C(NNC(=O)C1CC1c1ccccc1)c1ccccc1F (stereo not drawn) | 7 | 1 | -1.3 | -19 | 8 | -10 | -1 | -2.3 | i | -6.1
O=C(N/N=C/c1ccccc1F)c1ccccc1OCc1ccccc1 | -7 | -7 | -1.3 | -9 | -3 | 24 | · | 1.6 | i | 3.4
CC1CCc2c(sc(NS(=O)(=O)c3ccccc3)c2C(=O)OC(C)C)C1 (stereo not drawn) | -1 | · | -4.7 | · | · | -10 | 1 | · | · | ·
O=C(COc1cccc(NC(=O)c2ccccc2)c1)c1ccccc1 | 2 | -2 | 7.5 | -1 | 10 | -1 | 4 | -3.0 | i | 5.6
Cc1noc(C(=O)NC2CCCCC2)c1Cl | 0 | 10 | 5.0 | 4 | -3 | -2 | -6 | -0.6 | i | -6.8
CC(=O)c1cccc(NC(=S)NC2CCCCCCC2)c1 | 0 | -19 | · | -2 | -38 | · | 7 | -0.2 | i | 3.5
O=C(CN(CC1CCCO1)C(=O)c1nsc(Cl)c1Cl)NC1CCCC1 (stereo not drawn) | 6 | 15 | -2.6 | 33 | 5 | 1 | -9 | -1.2 | · | 2.1

(cont.)
SMILES | ALR inh | rRNA inh HTS | RanGTP-Impb inh | Calb FLC | rRNA inh HTS OD600 | T cruzi repl | Beta cell apopt | MLL AF4-AF9 inh | FGF22 binding | rRNA inh HTS RFP
O=C1c2cc(O)cc(O)c2C(=O)c2c1cc(O)c([C@@H](CO)CCO)c2O | · | -48 | -5.4 | -6 | -55 | -7 | 7 | 18 | i | -11
CC(=O)NNC(=O)c1csc(-c2csc(C)n2)n1 | -3 | 2 | -3.4 | -4 | -1 | · | · | -2.5 | i | -1.6
O=C(N/N=C/c1cccnc1)c1cc2ccccc2cc1O | 30 | · | -5.8 | 4 | · | -3 | -2 | 0.4 | i | ·
O=C(NCC1COc2ccccc2O1)c1cn(Cc2ccc(F)cc2)nn1 (stereo not drawn) | 1 | · | 0.5 | 0 | · | 2 | -5 | · | · | ·
COc1ccc(C(=O)NCC(=O)Nc2cccc(S(=O)(=O)NCc3ccco3)c2)cc1OC | -18 | 2 | -4.7 | -3 | -3 | 0 | -5 | -8.5 | i | 5.5
CCCCn1c(-c2ccco2)nc2ccccc2c1=O | 24 | · | 1.7 | 3 | · | 4 | -1 | · | · | ·
Cn1c(SCc2ccc(Cl)cc2)nc(C(F)(F)F)cc1=O | -17 | · | ? | 14 | · | 4 | 3 | · | · | ·
CCCOC(=O)C[N+](C)(C)CCOC1CC2CCC1(C)C2(C)C (stereo not drawn) | -1 | -47* | 1.2 | -8 | -24* | 38 | 4 | -44 | i | -9.3*
COc1ccc(/C=N/NC(=O)c2cccnc2)cc1COc1ccc([N+](=O)[O-])c(C)c1 | -11 | -24 | 4.3 | -17 | -26 | -14 | 13 | 0.9 | i | 7.9
N#Cc1ccccc1S(=O)(=O)N1CCN(CC(=O)Nc2ccccc2C(=O)NC2CC2)CC1 | -2 | · | · | · | · | · | 0 | 1.4 | i | ·
Cn1c(=O)c2c(nc(SCCN3CCCCC3)n2Cc2ccccc2)n(C)c1=O | 4 | · | -0.8 | -19 | · | 34 | 5 | · | · | ·
O=C(Nc1ccc(S(=O)(=O)NC2=NCCCCC2)cc1)c1ccc2ccccc2n1 | -4 | 6 | -0.7 | 6 | -3 | 18 | 5 | 5.7 | i | -3.2

The list continues:
SMILES | ALR inh | rRNA inh HTS | RanGTP-Impb inh | Calb FLC | rRNA inh HTS OD600 | T cruzi repl | Beta cell apopt | MLL AF4-AF9 inh | FGF22 binding | rRNA inh HTS RFP
COc1ccccc1N1CCN(C2CCCN(S(=O)(=O)c3cccc(Cl)c3)C2)CC1 (stereo not drawn) | 6 | -11 | -2.6 | -7 | -29 | 7 | -4 | 9.2 | i | -0.8
COc1ccc2[nH]c3c(=O)n(Cc4ccncc4)cnc3c2c1 | · | 1 | 2.7 | -2 | -2 | -16 | -2 | -3.3 | i | -3.8
Cc1c(Cl)ccc2c(C(N)=O)cc(-c3ccccn3)nc12 | -4 | 8 | 3.7 | -9 | 12 | 9 | -6 | -2.2 | i | 7.4
COc1ccc(S(=O)(=O)N/N=C(/C)c2ccncc2)cc1OC | -30 | 11 | 3.2 | 2 | 8 | -23 | 3 | -0.4 | i | 0.7
CC(=O)c1c(C)[nH]c(C(=O)COC(=O)CCOc2ccc(C)cc2)c1C | 11 | -8 | 6.1 | -1 | -6 | -14 | -9 | -4.8 | i | 4.7
CCCCCCNCc1c(F)cccc1Cl | -1 | · | 3.5 | -5 | · | -9 | -2 | · | · | ·
CCN(CC(=O)Nc1ccc(N2CCOCC2)cc1)C(=O)Cc1ccccc1 | 39 | · | · | · | · | · | -2 | -0.6 | i | ·
O=C(c1ccc2c(c1)OCO2)C1CCCN(Cc2cccc(C(F)(F)F)c2)C1 (stereo not drawn) | -2 | -9 | 0.8 | -20 | -41 | 45 | 1 | -13 | i | -7.4
COCC(C)NC(=O)c1ccccc1[N+](=O)[O-] (stereo not drawn) | -1 | 17 | 3.4 | -14 | 7 | -8 | -1 | -5.8 | i | -1.0
NCCc1cnc[nH]1 | · | 6&4 | 0.5&-12 | 1 | 15&6 | -7&-20 | -1 | 0.1&-0.4 | i | -2.2&-3.0
COc1ccc(-n2cc3c(-c4cccc(Br)c4)nnc(C)c3n2)cc1 | -3 | -36 | -14 | 55 | -42 | 41 | 8 | 5.7 | i | 55
Cc1ccc(S(=O)(=O)NCC(=O)N(CC(=O)NC2CCCCC2)Cc2ccco2)cc1 | 2 | · | 0.3 | -3 | · | 5 | 3 | · | · | ·

More compounds
SMILES | ALR inh | rRNA inh HTS | RanGTP-Impb inh | Calb FLC | rRNA inh HTS OD600 | T cruzi repl | Beta cell apopt | MLL AF4-AF9 inh | FGF22 binding | rRNA inh HTS RFP
COc1ccccc1NC(=O)CSc1nnc(C)n1Cc1ccccc1 | -13 | -1 | 2.2 | -7 | -2 | -9 | -2 | -6.4 | i | -1.2
O=C(NNC(=S)NCc1ccc(Cl)cc1)c1ccc2c(c1)OCO2 | 0 | -28 | ? | 8 | -34 | · | 1 | -1.7 | i | -0.5
Cc1cc(C)cc(C(=O)Nc2cccnc2Cl)c1 | -4 | -7 | 1.2 | -14 | -3 | -18 | 0 | 2.5 | i | -1.5
COC(=O)C(NC(C)=O)(Nc1ccc(Br)cc1)C(=O)OC | 10 | 21 | 9.8 | -10 | 17 | -2 | -1 | 4.1 | i | 6.5
COc1ccc(-c2coc3cc4oc(=O)c5ccccc5c4cc23)cc1F | 0 | · | 1.8 | -1 | · | 12 | 20 | · | · | ·
O=S(=O)(Nc1cccc(CO)c1)c1cccs1 | -2 | 6 | 1.3 | 5 | 1 | -16 | · | -0.1 | i | 0.9
O=C(NCc1ccc(Cl)cc1)C(=O)NCC(c1ccco1)N1CCOCC1 (stereo not drawn) | -11 | · | -0.9 | ? | · | -9 | -6 | · | · | ·
CC(=O)Nc1nc(-c2ccccc2)nc(C)c1C(C)=O | -8 | · | -2.6 | -11 | · | -18 | -3 | · | · | ·
Cc1cccc(NC(=O)CNC(=O)COc2ccc(C(=O)c3ccc(F)cc3)cc2)c1C | -2 | · | 1.9 | 8 | · | -16 | 5 | · | · | ·
Cc1ccc(C(=O)NCc2ccc3c(c2)CCO3)cc1C | -3 | 4 | 1.9 | -11 | -2 | 4 | -5 | -5.7 | i | 2.4
CCOC(=O)c1c(C)n(C)c2ccc(OC)c(NC(=O)c3cccs3)c12 | -26 | · | 1.2 | -6 | · | 10 | 0 | · | · | ·
CCOC(=O)C1CCN(C(=O)CN2C(=O)C(C(C)C)Oc3ccccc32)CC1 (stereo not drawn) | -18 | 2 | 6.6 | 5 | 17 | -2 | -2 | 1.7 | i | -1.6

The results go on.
SMILES | ALR inh | rRNA inh HTS | RanGTP-Impb inh | Calb FLC | rRNA inh HTS OD600 | T cruzi repl | Beta cell apopt | MLL AF4-AF9 inh | FGF22 binding | rRNA inh HTS RFP
COc1ccc(C(=O)O/N=C(\N)Cc2cccs2)cc1OC | -6 | · | 1.4 | 1 | · | -16 | 0 | -1.2 | i | ·
COc1ccc(N=C2C(=Nc3ccc(OC)cc3)N(c3ccccc3)C(=S)N2C(=O)c2ccc(Cl)cc2)cc1 | -33 | · | 1.9 | -22 | · | -35 | 7 | · | · | ·
COCc1[nH]nc2c1C1(C(=O)Nc3ccc(F)cc31)C(C#N)=C(N)O2 (stereo not drawn) | -11 | · | 2.7 | 2 | · | 2 | -4 | · | · | ·
CCOC(=O)c1ccc(NS(=O)(=O)c2cccc3nsnc23)cc1 | -12 | · | -0.6 | 47 | · | 8 | -1 | · | · | ·
CN(CC(=O)NC(=O)NCc1ccccc1)CC(=O)Nc1ccc(Cl)c(Cl)c1 | -1 | -51 | · | · | -78 | · | 5 | 0.5 | i | -17
O=C(CCc1ccccc1)NCCc1ccc(F)cc1 | -44 | -9 | 0.3 | 43 | -5 | -3 | -3 | -4.2 | i | -2.1
O=C(Cn1cnc2ccccc2c1=O)N(Cc1ccco1)c1ccc(O)cc1 | 8 | · | -3.0 | -2 | · | 4 | 1 | · | · | ·
Cc1ccccc1-n1ncc2c1CC(C)(C)CC2NC(=O)C1CCC1 (stereo not drawn) | -18 | 3 | -1.0 | -2 | -5 | -7 | -3 | 0.7 | + | 0.9

Just ALR inh, MLL AF4-AF9 inh and rRNA inh HTS RFP, for some of the entries so far:
smiles	ALR inh	MLL AF4-AF9 inh	rRNA inh HTS RFP
Cc1ccccc1-n1ncc2c1CC(C)(C)CC2NC(=O)C1CCC1 (stereo not drawn)	-18	0.7	0.9
COc1ccc(C(=O)O/N=C(\N)Cc2cccs2)cc1OC	-6	-1.2	·

An excerpt (hit frequency here may not be typical).
